RanGTP-Imp inh – disruptors of Ran-importin-beta complex formation – biochemical, FRET, CFP-Ran, YFP-importin-beta, homogeneous, primary screen | inhibition, % (concentration not given with the values) | actives 1.1% (n = 300,000) | cell-free CFP-Ran/YFP-importin-beta FRET ratio;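 active = most replicates above 15%; inconclusive = exactly half above 15%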;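 note: 0% = DMSO wells and 100% = Ran loaded with GDP instead of GTP; wells of about 40 µL received 100 nL stock; the first replicate is given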
Beta apoptosis – blocks beta cell apoptosis; protection from apoptosis, % (no concentration beside the values); INS-1E cytokine-induced death, ATP luminescence, 48 h; percent of positive-control rescue, neutral wells zero; actives 0.8% (n = 300,000);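 active = all replicates at 75% or more, or half of them and the mean; inconclusive = half reach 75% but not the mean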;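 note: 0% = cytokine-treated negative control wells and 100% = positive control rescue; higher means more ATP so stronger rescue from cytokine killing; wells of about 40 µL received 100 nL stock; the first replicate is given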
B2AR ag – activates human beta-2 adrenergic receptor causing internalization; P07550; Am2.2-beta2AR cells, FAP receptor internalization, flow cytometry; reference of the scale not given here; response, % (concentration not given with the values); actives 0.43% (n = 340,000); AID 504454;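 active = response above a set limit, near 3 SD of response in nonfluorescent compounds, cut at about 42% in these data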;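 note: stock transfer was 100 nL into about 11 µL; a reference agonist was the positive control; negative values mostly stem from fluorescent compounds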
Target sequence (P07550 whole entry, looked up): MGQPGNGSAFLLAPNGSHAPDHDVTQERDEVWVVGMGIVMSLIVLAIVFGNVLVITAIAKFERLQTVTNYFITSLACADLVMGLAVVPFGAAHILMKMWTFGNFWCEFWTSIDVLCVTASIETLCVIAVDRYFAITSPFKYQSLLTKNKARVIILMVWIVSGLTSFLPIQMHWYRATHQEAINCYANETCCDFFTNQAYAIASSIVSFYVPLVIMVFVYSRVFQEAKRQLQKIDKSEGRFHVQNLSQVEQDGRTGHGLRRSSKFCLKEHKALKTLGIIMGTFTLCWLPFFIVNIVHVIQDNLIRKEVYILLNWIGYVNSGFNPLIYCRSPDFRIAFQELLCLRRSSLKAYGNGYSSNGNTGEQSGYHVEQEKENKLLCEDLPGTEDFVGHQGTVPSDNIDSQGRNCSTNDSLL
Bfl-1 A1 inh – inhibitors of the anti-apoptotic protein A1, read as caspase activation; caspase activation, % (concentration not given with the values); AID 2462; actives 0.066% (n = 330,000); MEF A1-2A-BIM cells, Caspase-Glo 3/7 luminescence, 3 h; percent of clofoctol response, vehicle zero;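 active = over half of replicate activation scores above 10%, or exactly half above 10 with the replicate mean above 10; inconclusive = replicate mean below 10 yet half the replicates above 10; inactive = over half of replicates below 10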;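 note: wells of about 30 µL received 50 nL stock; many hits fall short of the cut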
Calb FLC – C. albicans growth modulation with fluconazole. growth inhibition, % (test concentration not listed). actives 0.57% (n = 300,000). C. albicans CaCi-2 (fluconazole-resistant clinical isolate) + fluconazole, Alamar Blue growth, 48 h;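 active = most replicates above 75%; inconclusive = exactly half above 75%; inactive = most below 75%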;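 note: all wells also contain fluconazole at 8 µg/ml as a sub-toxic cotreatment; 0% = median of DMSO wells and 100% = median of geldanamycin control wells; wells of about 8 µL received 7.5 nL stock; the first replicate is given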
UCH37 DUB inh – inhibitors of human deubiquitinating enzyme UCH37. Q9Y5K5. purified proteasome/UCH37, Ub-AMC cleavage fluorescence. inhibition, % (no concentration beside the values). actives 0.33% (n = 330,000). AID 588478;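 active = mean of two replicates above 20%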;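 note: 0% = compound-free wells with enzyme and 100% = wells lacking proteasome; stock transfer was 100 nL into about 20 µL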
Target sequence (Q9Y5K5 whole entry, looked up): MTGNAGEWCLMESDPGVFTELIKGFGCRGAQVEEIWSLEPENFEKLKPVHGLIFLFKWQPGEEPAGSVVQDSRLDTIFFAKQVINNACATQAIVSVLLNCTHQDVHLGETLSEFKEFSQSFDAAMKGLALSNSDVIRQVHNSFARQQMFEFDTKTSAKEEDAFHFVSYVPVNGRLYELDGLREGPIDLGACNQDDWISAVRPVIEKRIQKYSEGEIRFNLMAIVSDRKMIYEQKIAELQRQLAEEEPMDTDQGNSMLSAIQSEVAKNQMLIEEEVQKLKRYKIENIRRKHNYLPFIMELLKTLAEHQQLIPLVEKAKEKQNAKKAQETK
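Material: Human UCH37 enzyme supplied as purified proteasome complex | Schedule: 30 min compound-proteasome preincubation then 25 min substrate reaction, room temperature | Detection: AMC fluorescence from Ub-AMC cleavage, excitation 355 nm, emission 460 nm | Benchmarks: Wells without proteasome as full block, compound-free enzyme plus substrate as uninhibited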
T cruzi inh – T. cruzi replication inhibition | T. cruzi beta-gal in NIH3T3, luminescence, 90 h | actives 1.4% (n = 300,000) | inhibition, % (no concentration beside the values);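 active = mean inhibition across valid replicates above about 55%, limit read from the data; inconclusive = mean below that limit but half or more replicates reach it; inactive = mean below it, under half of replicates reach it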;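 note: signal also drops with host cell toxicity which is not excluded here; 0% = plate median of DMSO wells and 100% = zero luminescence signal; higher percent means less beta-gal luminescence so fewer parasites; stock transfer was 50 nL into about 50 µL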
LANA-H2B inh – blocks KSHV LANA binding to histone H2A/H2B. Q9QR71. cell-free LANA-H2A/H2B peptide, fluorescence polarization. inhibition, % (concentration not given with the values). actives 0.6% (n = 320,000). AID 2629; in the data active = inhibition mostly above about 10%, no sharp cut-off; inactive = mostly below about 6.7%;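 note: stock transfer was 7.5 nL into about 10 µL; 0% = median of vehicle wells and 100% = median of positive control wells; one replicate is shown; the record names a cut of 25% in any replicate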
* hit, by the source's call; ? = inconclusive; . = not tested or not shown. Not a hit list (roughly 4.3% active in at least one column).

SMILES	RanGTP-Imp inh	Beta apoptosis	B2AR ag	Bfl-1 A1 inh	Calb FLC	UCH37 DUB inh	T cruzi inh	LANA-H2B inh
Cc1ccnc(NC(=O)Nc2cccc(F)c2)n1	6.7	2	13	-7.0	0	2.4	-6	2.3
COc1cc(=O)[nH]c(=O)n1C(=O)Cc1ccccc1	3.8	9	-2	0.5	1	-0.5	-3	1.2
CC(C)(C)NS(=O)(=O)c1ccc(CCC(=O)NCc2ccco2)cc1	-0.9	0	0	-0.9	-19	0.5	-23	-1.6
Cc1cc(Nc2nnnn2-c2ccccc2)n(-c2ccccc2)n1	-0.3	6	2	?	-1	0.0	12	0.9
CNC(=S)N1CCN(c2ccc([N+](=O)[O-])cc2)CC1	0.2	-2	-2	-0.3	0	7.9	-3	1.4
COc1ccc(/C=C2\SC(=O)NC2=S)cc1OC	-105	13	19	1.0	55	16	-29	.
CCC(=O)N(CC)C1=C(O)c2ccccc2C(=O)C1=O	-14	-3	12	0.5	-4	37*	-7	-2.2
O=C(Cn1nnc(-c2ccccc2)n1)NCC(=O)Nc1ccc(F)c(F)c1F	.	-1	-3	0.4	.	-4.5	.	6.0
CCC(CC)N1CCN(Cc2nc3ccc([N+](=O)[O-])cc3c(=O)n2-c2ccccc2F)CC1	?	-4	-6	1.0	-6	5.3	18	-3.5
COC(=O)c1ccc(CNC(=O)COC(=O)Cc2ccsc2)cc1	-3.0	-5	2	0.1	-5	-1.2	-8	1.1
COC(=O)Nc1ccc2c(c1)N(C(=O)CCN(C)C)c1ccccc1CC2	-0.4	-8	-9	0.2	-2	5.7	-10	6.8
O=C(NCCc1ccccc1)c1ccccc1[N+](=O)[O-]	2.4	-1	-7	-0.1	-5	0.3	-12	2.8
CC1=NN(c2ccc(Br)cc2)C(=O)/C1=C/c1cccs1	-1.2	9	11	0.1	1	3.6	-9	-0.5
CCOC(=O)N1CCN(C(=O)c2cccc(F)c2)CC1	-1.2	-3	11	-0.3	-22	6.8	-7	-3.2
CCCOc1cccc(C(=O)Nc2ccc(Br)cc2F)c1	-2.1	0	-4	0.2	-2	2.1	-7	-2.3
O=C(Cn1ncc2c1-c1ccccc1OC2)N1CCN(c2ccccn2)CC1	1.8	3	1	-0.1	-3	3.3	-7	5.3
CCOc1ccc(N(CC(=O)NCc2ccc(OC)cc2)C(=O)CCC(=O)Nc2nccs2)cc1	2.5	3	6	-0.1	5	1.1	6	1.0
CCOc1cc(/C=C/C(=O)O)ccc1OCc1ccccc1	-2.5	-4	0	-0.6	-2	1.0	-3	-3.2
CCOC(=O)C(C)Sc1snnc1C (stereo unspecified)	0.6	-4	-1	-1.3	-13	2.3	-12	-3.8
COC(=O)c1ccc(N2CCOCC2)c(NC(=O)c2cccs2)c1	-0.6	1	-1	0.1	-1	-0.1	-1	6.4
CC1(C)Cc2cccc(C(=O)Nc3ccc(F)cc3F)c2O1	?	.	-8	0.2	-5	1.8	18	7.5
CCC(C)N=Cc1c(Nc2ccccc2)nc2c(C)cccn2c1=O (stereo unspecified)	2.3	4	-17	-0.8	-1	5.9	28	-4.9
COc1ccc(S(=O)(=O)N2CCOCC2)cc1NC(=O)COC(=O)C1CCC1	.	0	9	0.7	.	4.0	.	0.2
Cc1cc(OCC(=O)O/N=C(\N)c2ccccc2)ccc1Cl	.	3	2	-0.4	.	1.8	.	16
CC(NC(=O)C(=O)c1cn(CC(=O)N2CCOCC2)c2ccccc12)c1ccccc1 (stereo unspecified)	-0.8	-3	1	0.2	-25	5.0	-3	1.4
Cn1c(SCC(=O)NC2CCCC2)nnc1-c1cccs1	0.6	-7	-40	0.6	-1	4.1	1	-3.2
CCN(CC)CCNC(=O)C(=O)Nc1ccc2c(c1)N(S(=O)(=O)c1cccs1)CCC2	-0.4	-2	6	0.8	-8	5.2	-13	-3.1
COc1cccc(OCC(=O)Nc2ccncc2)c1	-4.3	-3	2	0.0	4	5.3	-14	-0.4
Cc1scc(C(=O)NNC(=S)NCC(C)C)c1C	-5.3	.	20	0.3	4	1.6	-13	-1.8
CN1c2ccsc2/C(=N/NC(=O)c2c(F)cccc2F)CS1(=O)=O	2.3	-11	-1	0.4	7	.	7	0.1
Cc1cccc(C(=O)NCc2nnc3c4ccccc4c(-c4ccccc4)nn23)c1	-1.8	-2	-31	-0.4	?	0.1	2	0.4
Cc1onc(-c2ccccc2)c1C(=O)OCCOc1ccc([N+](=O)[O-])cc1[N+](=O)[O-]	4.3	15	1	0.6	-4	3.7	33	0.7
Cc1ccc2nc(-c3ccncc3)cc(C(=O)Nc3ccncc3)c2c1	1.1	16	17	1.1	-1	-7.1	11	-6.4
N#C/C(=C\c1ccc(Sc2nc3ccccc3[nH]2)o1)c1ccccc1	4.0	.	1	0.3	2	-7.8	-1	1.2
CCN(CC)C(=O)CSc1nnc2cc(C)c3ccccc3n12	3.2	-5	-2	0.4	-1	-1.1	13	3.5
CCOc1ccccc1N(C(=O)CNC(=O)c1ccco1)C(C(=O)NC1CCCC1)c1ccncc1 (stereo unspecified)	0.4	-12	-10	0.5	-14	2.6	-7	-1.6
C=CCn1c(SCC(=O)Nc2sc3c(c2C#N)CCC3)nnc1C1COc2ccccc2O1 (stereo unspecified)	5.5	-4	4	1.6	-3	2.0	10	-3.3
Cc1ccc(S(=O)(=O)c2cnc(-c3ccccc3)nc2N2CCCCC2)cc1	-0.9	5	1	0.5	18	2.0	29	-0.6
CCOC(=O)Cc1c[nH]c(=S)[nH]c1=O	-1.8	-4	0	-0.6	-3	.	-3	-1.7
CC(=O)c1cccc(-n2nnnc2SCC(=O)Nc2cc(C)on2)c1	1.6	0	5	0.4	17	2.0	0	0.4
CCOC(=O)N1CCN(CC(=O)Nc2ccccc2C(=O)Nc2ccccc2)CC1	.	-4	0	1.1	.	3.0	.	-0.3
Cc1cc2oc(C(=O)N(Cc3ccc(N(C)C)cc3)CC3CCCO3)c(C)c2cc1C (stereo unspecified)	-1.0	2	-3	0.6	1	0.4	27	0.2
COc1ccc(S(=O)(=O)NCCC(C)C)cc1C	0.4	-14	-6	0.0	-1	2.5	-5	-6.2
O=C(COC(=O)c1ccccc1C(=O)c1ccccc1)c1ccco1	4.9	-10	-1	0.2	2	3.4	-7	1.1
O=C(COC(=O)c1ccc2ncsc2c1)Nc1ccc(OC(F)(F)F)cc1	.	-5	0	-0.6	.	.	.	-1.7
CCOC(=O)c1ccc(NC(=O)[C@@H](NC(N)=O)C(C)C)cc1	2.2	-3	-3	-0.8	-5	6.7	-5	2.3
CC(CC(=O)NCc1ccco1)S(=O)(=O)c1ccc2c(c1)CCN2C(=O)C1CC1 (stereo unspecified)	-1.0	1	-15	-0.6	5	1.2	-4	0.6
CC(C)(C)c1ccc(OC(=O)N2CCOCC2)cc1	?	10	10	-0.4	-22	6.3	-12	8.2
CN1CCN(S(=O)(=O)c2cccc(C(=O)NC3CCCC3)c2)CC1	1.1	1	0	0.1	-2	-1.7	-1	-7.0
CCCCCCN(CCCCCC)C(=O)Cc1c(-c2ccc(F)cc2)[nH]c2ccccc12	.	40	-1	0.0	.	-2.8	.	-1.9
The list continues:
SMILES	RanGTP-Imp inh	Beta apoptosis	B2AR ag	Bfl-1 A1 inh	Calb FLC	UCH37 DUB inh	T cruzi inh	LANA-H2B inh
CC(=O)NC1C(=O)N=C(SC(C)C(=O)Nc2cccc(Cl)c2)NC1=O (stereo unspecified)	-0.9	-7	2	-0.4	2	1.1	-19	3.0
c1ccc2oc(-c3csc(N4CCOCC4)n3)cc2c1	-4.1	0	11	-0.1	-18	-0.1	-8	2.2
CCOC(=O)N1CCN(C(=O)Nc2ccc(Cl)cc2Cl)CC1	3.2	-6	-1	-0.4	2	-0.8	-8	-0.8
CCOc1cc(/C=C2\SC(N3CCCC(C)C3)=NC2=O)ccc1O (stereo unspecified)	-10	-3	3	0.4	15	4.0	-5	-8.0
O=C(CN(Cc1ccc(F)cc1)C(=O)C1CSC(=O)C1)NC1CCCCC1 (stereo unspecified)	0.9	-28	0	0.5	3	-0.3	3	-2.9
Cc1sc2ncnc(NCC(c3ccccc3)N(C)C)c2c1C (stereo unspecified)	-3.4	9	2	0.6	-6	1.1	38	0.9
Cc1ccc2nc(SCCCCOc3ccccc3)[nH]c2c1	9.0	-7	5	1.2	1	3.2	10	2.8
C[C@H]1CN([C@@H](C)CO)C(=O)c2cccc(NC(=O)c3ccncc3)c2O[C@H]1CN(C)C(=O)Nc1ccccc1	.	0	0	1.3	.	1.2	.	0.5
Cn1c(=O)c2c(nc(NCc3ccco3)n2Cc2ccccc2Cl)n(C)c1=O	-2.5	26	-9	-0.1	-10	2.9	-39	-4.1
c1cncc(C(c2nnnn2C2CCCC2)N2CCN(Cc3ccc4c(c3)OCO4)CC2)c1 (stereo unspecified)	-2.3	-3	7	1.2	-18	1.1	54	0.0
COc1ccccc1CCNC(=O)c1nccnc1C(=O)O	-10	-6	-6	-0.1	-9	1.0	7	-5.0
C[C@H](CO)N1C[C@H](C)[C@@H](CN(C)S(=O)(=O)c2ccccc2)Oc2ccc(NC(=O)C3CC3)cc2C1=O	.	-1	1	-1.1	.	0.1	.	.
CCc1ccc(NC(=O)N2CCN(C(=O)C3CCCO3)CC2)cc1 (stereo unspecified)	-0.5	0	-2	-0.2	-8	5.1	-19	-7.5
C=Cn1cc[n+](CC(=O)c2ccc(Br)s2)c1	7.0	.	-2	0.2	-21	-2.1	-5	-2.9
N#Cc1cc(C#N)c(N2CCN(c3ccccn3)CC2)nc1N	1.6	10	0	1.0	-2	-0.1	-16	-3.3
O=C(Cn1c(CO)nc2ccccc21)Nc1cc(C(F)(F)F)ccc1N1CCOCC1	-4.1	-7	-4	0.2	29	5.2	5	-1.9
Cc1cc(NC(=O)CCC(=O)N(c2ccccc2)C(C(=O)NC2CCCC2)c2ccc(F)cc2)no1 (stereo unspecified)	7.7	4	2	0.1	5	0.2	3	-1.6
COC(=O)Cc1coc2cc(OC)ccc12	.	-5	-4	-2.0	.	-2.6	.	-3.4
Cc1nn(C)c(C)c1NS(=O)(=O)c1cccc(Br)c1	?	-3	-4	-0.2	.	3.2	-8	-2.3
CCOC(=O)C1=C(C)NC(C)=C(C(=O)OCC)C1c1cccc(C)n1	2.6	-4	-4	0.3	3	-44	-9	1.0
O=C(COc1ccc(Cl)cc1Cl)NN1C(=O)C2C3C=CC([C@@H]2C1=O)C31CC1 (stereo partly specified)	1.3	-9	2	0.3	10	3.2	33	-3.6
CC(NS(=O)(=O)c1ccc(Br)cc1)C(c1cccs1)N1CCN(C)CC1 (stereo unspecified)	-1.3	-2	-6	0.0	1	3.7	-7	-6.1
Cc1cccc(CCNC(=O)c2oc3c(C)c(C)ccc3c2C)n1	-0.7	.	-2	-0.6	14	3.4	-1	-0.5
CCN1CCN(c2oc(-c3ccc(OC)cc3)nc2C#N)CC1	?	0	-13	-0.2	-17	-69	6	4.2
CCN(CC)C(=O)CSc1nc2ccccc2n1CC(=O)N1CCN(c2ccccc2OC)CC1	0.0	1	-2	0.3	-7	1.2	-1	-1.1
